NPYLR7 ag = agonists of mosquito NPYLR7 receptor, primary screen, cell-based, Aedes aegypti, calcium fluorescence, mosquito biting behavior | activation, % at 10 µM | HEK293T NPYLR7/Galpha15, GCaMP6s calcium fluorescence | hit rate 0.15% among 270,000 | Aedes aegypti neuropeptide Y-like receptor 7 (NPYLR7); in the data active = activation above about 40%;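 also: 0% = vehicle and 100% = reference agonist at the receptor; some compounds past the cut are filed as inactive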
NPYLR7 ag max-min = also measured in NPYLR7 ag; calls as there; activation, %; measured here: Max-Min RFU normalised activation; some inactives read as strong as hits;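 span of the calcium signal over five minutes; 0% = vehicle and 100% = native peptide agonist; compound fluorescence can raise it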
Active calls of the source: *. An excerpt, so the mix of outcomes need not match the whole.

Sequence of screens – NPYLR7 ag, NPYLR7 ag max-min
O=C1CCCN1c1ccc(CC(=O)N2CCCC2c2ccc(O)cc2)cc1 (stereo not given)
→ 1.6, -1.3
CN(C)c1cccc(C(NC(=O)c2ccccc2Oc2ccccc2)c2ccc(S(C)(=O)=O)cc2)c1 (stereo not given)
→ -2.0, -7.3
CCCc1noc(-c2ccc(-c3ccccc3)cc2)n1
→ -5.6, -4.5
COc1ccc(OCC(O)CN(Cc2ccc(F)cc2F)C2CC2)cc1 (stereo not given)
→ -3.0, -2.2
CCCCn1c2ccccc2n2c(C(=O)OC)c(C)nc12
→ -6.7, -16.6
CCOC(=O)C1CCCN(CC(=O)N2N=C(c3ccc(F)cc3)CC2c2ccc(OC)cc2OC)C1 (stereo not given)
→ -2.1, 6.4
O=C(CCC1(Cc2cccc3ccccc23)CCC(=O)N1)NCc1cc2ccccc2s1 (stereo not given)
→ 29.3, 9.8
Oc1cccc(CN2C[C@@H]3C4CCC(CC4)[C@@H]3C2)c1
→ -0.4, 4.4
Cc1nc(C(=O)N2CC=C(n3c(=O)[nH]c4ccccc43)CC2)cs1
→ 9.0, 5.3
Nc1cccc(-c2ccn[nH]2)c1
→ -11.3, -17.0
O=C(CC1(O)C(=O)Nc2ccc(Br)cc21)c1ccc(Br)cc1 (stereo not given)
→ 3.0, 3.4
CCc1cc(NCCCN2CCC(O)CC2)nc(-c2ccncc2)n1
→ 6.4, 3.2
CCOC(=O)CCCC(=O)N1CCN(c2ccc(NC(=O)c3ccc(C)cc3)cn2)CC1
→ 2.1, -1.8
O=C(Cn1ccccc1=O)NCC1(c2ccccc2)CCCCC1
→ 4.3, 1.2
CCOC(=O)c1cc(-c2ccc(F)cc2)n(C2CCN(C(=O)c3sccc3C)CC2)n1
→ -7.1, -9.1
COC(=O)Cn1cnc2c(nnn2Cc2ccccc2F)c1=O
→ 8.2, 11.2
CCC(C)N(Cc1csc(COc2cc(C)cc(C)c2)n1)C(=O)c1ccco1 (stereo not given)
→ 22.0, 29.9
Cc1cc(C(=O)N(CC2CCN(Cc3ccccc3F)CC2)CC2CCCO2)n(C)n1 (stereo not given)
→ 4.5, -3.9
C=Cc1cccc(CN2CC[C@@H]3CC[C@H](C2)N3C)c1
→ 3.1, -0.7
CCCC(=O)NCCc1cc2c(C)ccc(C)c2[nH]c1=O
→ 1.5, 8.2

The final 2 records of the part above lead into the next:
Sequence of screens – NPYLR7 ag, NPYLR7 ag max-min
C=Cc1cccc(CN2CC[C@@H]3CC[C@H](C2)N3C)c1
→ 3.1, -0.7
CCCC(=O)NCCc1cc2c(C)ccc(C)c2[nH]c1=O
→ 1.5, 8.2
Cc1cc(CNC(=O)c2ccc3oc(-c4cccc(F)c4)nc3c2)nn1C
→ 6.7, 5.7
CCSc1nnc(NC(=O)/C=C/c2ccc(Br)cc2)s1
→ -1.8, -7.6
CN(C(=O)C1C2C3CCC(C3)C12)C1CCCCC1 (stereo not given)
→ 2.2, 0.5
CCN(CC(=O)NC(C)c1cccs1)Cc1cccc(F)c1 (stereo not given)
→ 2.3, -1.4
Cc1[nH]c2ccccc2c1C(c1ccccn1)N1CCCCC1 (stereo not given)
→ 0.4, 5.4
CCCNc1nc2ccccn2c(=O)c1C=C1SC(=S)N(CC(C)C)C1=O
→ 1.8, 1.1
Cc1ccc(C(=O)NCCN2C(=O)SC(=Cc3cccc(Br)c3)C2=O)o1
→ 0.8, -1.2
Cc1nc(C)c(CC(=O)N2CC[C@@H](c3sccc3C)[C@H](O)C2)c(=O)[nH]1
→ 0.8, 0.5
Cc1cc(O)c(C(c2ccncc2)N2CCCCC2)c(=O)n1Cc1cccnc1 (stereo not given)
→ 11.5, 3.3
c1csc(-c2noc(CSc3ncnc4ccccc34)n2)c1
→ 3.6, 1.6
COc1ccc(NC(=O)N2CCCC2c2nnc3n2CCCCC3)cc1 (stereo not given)
→ 3.6, 0.2
O=C1CCC(C(=O)N2CCN(Cc3cccc(-c4noc(-c5cccs5)n4)c3)CC2)=NN1
→ -4.2, -7.0
COc1ccc2cc(C3CN(C(=O)CCc4n[nH]c(C)c4C)CCO3)ccc2c1 (stereo not given)
→ -14.3, -16.2
CCC(C)N(Cc1c(-c2ccccc2)noc1N1CCSCC1)C(=O)c1ccc2c(c1)OCO2 (stereo not given)
→ -3.1, 6.7
CNC(=O)CN1C(=O)CSC1c1ccc(C)cc1 (stereo not given)
→ -1.2, 1.6
O=C(Cc1ccccc1)N1CCCC(Nc2ccc(F)cc2)C1 (stereo not given)
→ 19.4, 21.8
CN1CCN(c2c(S(=O)(=O)c3ccccc3)cnc3ccc(F)cc23)CC1
→ 4.7, 3.1
CN(Cc1ccccc1-n1cccn1)C(=O)[C@H]1CCCO1
→ 7.3, 5.8
O=C(NC1CCN(c2ccccc2C(=O)N2CCc3ccccc3C2)CC1)C1CCC1
→ 15.5, 13.0
COCC(=O)NC1CCN(c2ccccc2C(=O)N2CCN(C)CC2)CC1
→ 13.2, 21.6

An excerpt of these results, as labelled records.
> CN(Cc1ccccc1-n1cccn1)C(=O)[C@H]1CCCO1
  NPYLR7 ag = 7.3	NPYLR7 ag max-min = 5.8

> O=C(NC1CCN(c2ccccc2C(=O)N2CCc3ccccc3C2)CC1)C1CCC1
  NPYLR7 ag = 15.5	NPYLR7 ag max-min = 13.0

Going on with the list:
Sequence of screens – NPYLR7 ag, NPYLR7 ag max-min
O=C1OC(c2ccc3c(c2)OCO3)=N/C1=C\c1cccc(F)c1
→ -0.6, -1.2
CC(NS(=O)(=O)c1ccccc1Cl)c1ccncc1 (stereo not given)
→ 9.2, 7.8
COC(=O)NCC(c1ccc2c(c1)OCO2)N1CCN(c2ccc(OC)cc2)CC1 (stereo not given)
→ 1.2, -3.0
CCOC(=O)CCCC(=O)N1CCN(c2cc(S(=O)(=O)NCC3CCCO3)ccc2OC)CC1 (stereo not given)
→ 1.1, 15.1
COc1cccc(CSc2sc3c(O)cc(=O)[nH]c3c2C(N)=O)c1
→ -2.4, -3.2
CCCCN(C)[C@H]1[C@H](O)C[C@@H]2CC(C)(C)OC[C@]21O
→ 3.4, 11.8
CC(c1ccc(Cl)cc1)C(C)N(C)S(=O)(=O)CC1CCOC1 (stereo not given)
→ 0.8, 0.3
Cc1cccc(NC(=O)C2CSCN2C(=O)c2nccc3ccccc23)c1C (stereo not given)
→ 9.9, 7.2
CC(=O)c1cccc(-c2nccc3n[nH]c(C4CCCCC4)c23)c1
→ 3.0, 1.2
CC(=O)c1cc(-c2cc(NCCN(C)C)nc3[nH]ccc23)ccc1O
→ -0.9, -5.3
Cn1ncc(Cl)c(Oc2ccc(C(C)(C)C)cc2)c1=O
→ 1.5, 0.9
Cc1ccc(NC(=O)C(C)n2nc(-c3ccco3)oc2=O)c(C)c1 (stereo not given)
→ 3.7, 3.0
CCSc1nnc(NC(=O)CSc2nc3c([nH]c4ccccc43)c(=O)n2CC)s1
→ -1.3, -1.2
CC(N)=C(C#N)C(=O)COC(=O)CC1CCCC1
→ 1.5, 2.3
CCOC(OCC)c1nc2c(c(=O)[nH]1)CN(C(=O)CCl)CC2
→ 18.2, 12.8
CCN(C1CCS(=O)(=O)C1)S(=O)(=O)c1ccc(Cl)cc1 (stereo not given)
→ -4.2, -3.7
O=C(CCC1CCN(C(=O)Cn2nc3ccccc3n2)CC1)NCC1CCCO1 (stereo not given)
→ -6.4, -6.5
O=C(NCCOc1ccccc1F)c1n[nH]c2c1CCC2
→ 1.8, 1.6
O=S(=O)(Nc1ccc(N2CCOCC2)nn1)c1ccccc1
→ -1.3, -1.5
Cc1[nH]cnc1CSCCNc1nc(-c2ccncc2)nc2c1CNC2
→ 7.6, 4.7

The results go on:
Sequence of screens – NPYLR7 ag, NPYLR7 ag max-min
CC(Cn1cccn1)Nc1ncnc2c1c(Br)nn2C (stereo not given)
→ 7.4, 4.1
CCc1nnc(NC(=O)Cc2ccc(F)cc2)s1
→ 0.9, 0.4
Cc1ccn2c(=O)nc(SCc3cccc(F)c3)nc2c1
→ 3.0, 1.8
Cc1ccc(NC(=O)CSc2nnc(CCC(=O)O)c(=O)[nH]2)c(C)c1
→ 5.9, 3.7
COc1ccc(-c2nc3scc(CCNS(=O)(=O)c4ccc(NC(C)=O)cc4)n3n2)cc1
→ -11.2, -9.3
CN1CCN(c2onc(-c3ccccc3)c2CN(CC(O)CN2CCOCC2)CC2CCCO2)CC1 (stereo not given)
→ 3.3, 3.2
COc1ccccc1-c1ccc(NCCn2cccn2)nn1
→ 2.2, -1.1
COc1ccc2oc(=O)c(-c3nnc(Nc4cc([N+](=O)[O-])ccc4F)s3)cc2c1
→ 1.7, 3.2
COc1ccccc1CC(=O)N1CCC(n2nc(C(C)C)cc2C(C)C)CC1
→ 19.6, 17.2
CCc1cc2c(=O)n(NC(=O)C3CCN(S(=O)(=O)c4ccc(F)cc4)CC3)cnc2s1
→ -4.2, -3.0
N#CC1C(=O)NC(N2CCN(c3ccccn3)CC2)=NC12CCCC2 (stereo not given)
→ -1.1, -1.8
O=[N+]([O-])c1cccc(-n2cccc2/C=N\Nc2nc(N3CCOCC3)nc(N3CCOCC3)n2)c1
→ -3.2, -7.5
Cc1nccc(C(=O)N2CCC(C)N(C(=O)OC(C)(C)C)c3ccccc32)n1 (stereo not given)
→ 6.0, 4.5
CCc1cc(=O)[nH]c(-n2nc(C)cc2NC(=O)c2cccc(OC)c2OC)n1
→ 7.4, 2.1
O=C(Nc1cc(-c2cccc3c2OCCO3)no1)N(Cc1ccccn1)C1CC1
→ 10.1, 5.7
COc1ccc(Nc2nc(NN)nc(Nc3ccc(OC)cc3)n2)cc1
→ 0.7, -3.9
CCCC(C(=O)O)N1C(=O)C2C3C=CC(C3)C2C1=O (stereo not given)
→ 1.4, 0.3
COc1ccc(C2SCCN2C(=O)c2ccccc2F)c(OC)c1 (stereo not given)
→ 13.4, 18.8
CN(C(=O)c1ccncc1F)c1cccnc1N1CCCC1
→ 8.8, 7.8
CC1(C)CNC(=O)c2nc(-c3ccccc3-n3cccn3)[nH]c2C1
→ -3.1, -4.7

Carrying on:
Sequence of screens – NPYLR7 ag, NPYLR7 ag max-min
CCCCn1nnnc1CN(C)c1ccc(C)cc1C
→ -2.4, -4.7
Cc1nc(C(F)(F)F)ccc1C(=O)Nc1cc(-c2onc3c2CCCC3)cc(C(F)(F)F)c1
→ 21.6, 27.2
CC(=O)Oc1c(-c2ccc(NC(=O)C3CCCC3)cc2)c(-c2ccc3c(c2)OCO3)nn1-c1cccc(C)c1
→ 4.8, 10.4
c1ccc(N2CCN(C3CCCN(Cc4ccc(Oc5ncccn5)cc4)C3)CC2)cc1 (stereo not given)
→ -6.4, -10.5
COc1ccc(CCNC(=O)C(C2CCCC2)N2CCN(C(=O)c3cccc(C)c3)CC2)cc1 (stereo not given)
→ 2.7, 14.4
Nc1nc(-c2ccccc2)cn1N=Cc1ccccc1
→ -2.4, -2.6
Cc1cccc(-c2nc3cc(C)ccn3c2NC(C)(C)C)c1
→ -8.4, 0.4
COc1ccc(F)c(CN2CCCC3(CCN(C(=O)CCn4cccn4)C3)C2)c1 (stereo not given)
→ 4.0, 2.0
Cc1ccn2c(=O)c(C(=O)NC3CC(C)CC(C)(C)C3)c(O)nc2c1 (stereo not given)
→ -1.3, 35.6
COC(=O)c1ccc(CSc2nnc(-c3ccc(F)cc3)n2-c2ccccc2C)o1
→ 17.5, 18.9
CC(C)C1CN(C(=O)c2ccncc2)CCCN1CC1CC1 (stereo not given)
→ 0.6, -2.5
O=C(ON=Cc1ccccc1)C1CCN(S(=O)(=O)c2ccc(Cl)cc2)CC1
→ -4.2, -5.4
CCOC(=O)C1(CCc2ccccc2)CCN(C(=O)c2occc2C)CC1
→ 17.1, 8.0
COc1ccc(C(=O)N2Cc3cnn(Cc4ccc(F)cc4)c3C2)c(OC)c1
→ 8.0, 0.2
CCC(c1ccccn1)N(C)Cc1ccc(F)c(C)c1 (stereo not given)
→ 6.3, 4.3
O=C(Nc1cccc(F)c1)Nc1ccnn1C1CCN(Cc2ccc3c(c2)OCCO3)CC1
→ 6.8, 7.6
COc1ccc(C2=NOC3C(O)[C@@H]4OCC(O4)[C@@H]23)cc1 (stereo not given in full)
→ -3.2, -5.4
COc1cc(-c2nc(Cn3ccnc3C(C)C)c(C)o2)cc2c1OCO2
→ 14.2, 1.8
Cc1cnc(C(=O)N2CC[C@@H]3CC[C@H](C2)N3C)cn1
→ 0.9, 1.0
CCOC(=O)c1ccc(Nc2nc3nonc3nc2N/N=C\c2cn[nH]c2-c2ccccc2)cc1
→ -12.5, -16.1

Remaining list, next part
Sequence of screens – NPYLR7 ag, NPYLR7 ag max-min
C=CCNC(=O)c1cc(-c2ccccc2)nc2ccccc12
→ 0.7, -0.6
C=CCn1c(=O)c2c(nc3n(-c4ccc(Cl)cc4)c(C)c(C)n23)n(C)c1=O
→ 6.3, 3.3
Cc1c(C(C)NC(=O)CCc2cnccn2)cnn1-c1ccccn1 (stereo not given)
→ -7.5, -8.3
CCCC1C2=C(CC(C)(C)CC2=O)OC(=N)C1C#N (stereo not given)
→ -0.6, -3.1
CC(NC(C(=O)N(C)C)c1ccccc1)c1ccccc1Cl (stereo not given)
→ 0.5, -1.8
COc1ccccc1-n1c(Cc2ccccc2)nnc1SCC(=O)NCC1CCCO1 (stereo not given)
→ 0.6, 16.9
COc1ccc(-c2nc3cc(C)ccn3c2NC(=O)c2cccc(F)c2)cc1
→ -0.4, 10.3
CCN1CCC(C(=O)NC(c2ccc(C)cc2)c2ccccn2)CC1 (stereo not given)
→ -5.9, 3.6
COc1ccc(S(=O)(=O)N(C)C)cc1Br
→ -1.9, -3.3
COC(=O)CCC(=O)N1CCc2c([nH]c3ccccc23)C1c1cccc(C(F)(F)F)c1 (stereo not given)
→ 0.4, -2.1
COC(=O)CCCC(=O)NC(Cc1ccccc1)c1nnc(SCc2cccc(C)c2)n1-c1ccc([N+](=O)[O-])cc1 (stereo not given)
→ 2.1, -4.2
Cc1ccc(C)c(S(=O)(=O)N2CCN(C(=O)CSc3nnnn3C3CCCC3)CC2)c1
→ -5.2, 8.8
O=[N+]([O-])c1cc(C(F)(F)F)ccc1N=Nc1c(O)[nH]c2ccccc12
→ -9.9, -11.2
O=C(Nc1ccc2c(c1)OC1(CCCC1)O2)C1=CN2CCS(=O)(=O)N=C2C=C1
→ -1.6, 0.0
CCc1cc(Sc2cn[nH]n2)nc(-c2ccncc2)n1
→ -6.0, 729.1
